Assay outcomes from PubChem BioAssay.
Sa ugtP lethal = kills S. aureus RN4220 lacking UgtP; actives 0.54% (n = 330,000); S. aureus RN4220 ugtP deletion, OD600 growth, 16 h; some inactives read as strong as hits; AID 1259309; growth inhibition, % (no concentration beside the values);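 active = z-score under -3 and OD600 up to 0.15 on both plates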;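 also: plate controls were untreated wells for no effect and antibiotic for full effect; wells of about 80 µL received 100 nL stock; the first replicate is given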
PrP UTR inh = suppresses PrP 5' UTR mRNA reporter expression. cell-based PrP 5' UTR mRNA reporter, plate reader. inhibition, % (concentration not given with the values). actives 0.35% (n = 340,000). AID 488862;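 active = every replicate at 50% or more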;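 also: 0 = median of the neutral control wells; tested in H4 reporter cells; numbers are from one replicate; inactives centre near -14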
Sa RN4220 lethal = S. aureus RN4220 growth inhibition; OD600, 16 h; inhibition, % (concentration not given with the values); actives 0.33% (n = 330,000); AID 1259311;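 active = z-score of -3 or lower and OD600 up to 0.18 on both plates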;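 also: plate controls were untreated cells for no effect and reference antibiotic for full effect; stock transfer was 100 nL into about 80 µL; one replicate is shown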
BJeLR lethal = kills HRASV12-expressing BJeLR cells; BJeLR (HRASV12) viability, CellTiter-Glo ATP luminescence, 48 h; reference of the scale not given here; inhibition, % (no concentration beside the values); actives 0.17% (n = 300,000);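 active = replicate mean above 50%; inconclusive = above 50% but judged a plate artefact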;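 also: 50 nL library stock added to about 25 µL; numbers are from one replicate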
Bead autofluor = counter-screen for toxin protease inhibitors: compound fluorescence | fluorescence intensity (concentration not given with the values) | actives 3.1% (n = 360,000) | compound autofluorescence counterscreen, microsphere flow cytometry; stronger effect = higher value;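 active = at least 3 SD above the mean of all compounds, about 16000 in these data; inconclusive = too few beads counted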;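 also: 100 nL of 1 mM stock went into each well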
Mtb hypoxia inh = Mtb hypoxia fluorescent reporter inhibition | fluorescence inhibition, % (no concentration beside the values) | actives 0.1% (n = 300,000) | M. tuberculosis hypoxia-regulated fluorescent reporter, fluorescence;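 active = 35 to 45% if threefold the growth effect, above 45% if 1.5-fold the growth effect; inactive = the rest, general growth blockers included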;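 also: wells of about 50 µL received 100 nL stock; 0% = vehicle wells and 100% = reference inhibitor wells; whole bacteria with a GFP reporter of the hypoxia response; strong numbers were not always called active; many hits fall short of the cut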
Mtb hypoxia inh growth = further read-out of Mtb hypoxia inh, marked with its call; growth inhibition, %; measured here: M. tuberculosis growth (absorbance);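 0% = vehicle and 100% = reference antibiotic; read after six days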
* = called active by the depositor; ? = inconclusive; . = no result given.

Start of the listing, in advance (two entries):
SMILES	Sa ugtP lethal	PrP UTR inh	Sa RN4220 lethal	BJeLR lethal	Bead autofluor	Mtb hypoxia inh	Mtb hypoxia inh growth
CS(=O)(=O)Nc1ccc(C2=NN(S(=O)(=O)c3ccc(F)cc3)C(c3ccco3)C2)cc1 (configuration not stated)	-3	-2	6.0	-1	4602	3	1
O=C(O)c1ccccc1C(=O)c1ccc(Cl)cc1	-1	6	0.5	16	6075	16	19

All compounds of this part (from the top)
SMILES	Sa ugtP lethal	PrP UTR inh	Sa RN4220 lethal	BJeLR lethal	Bead autofluor	Mtb hypoxia inh	Mtb hypoxia inh growth
CS(=O)(=O)Nc1ccc(C2=NN(S(=O)(=O)c3ccc(F)cc3)C(c3ccco3)C2)cc1 (configuration not stated)	-3	-2	6.0	-1	4602	3	1
O=C(O)c1ccccc1C(=O)c1ccc(Cl)cc1	-1	6	0.5	16	6075	16	19
Cc1c(Nc2nc3ccccc3nc2NS(=O)(=O)c2cccs2)c(=O)n(-c2ccccc2)n1C	6	-24	4.3	-1	6089	3	9
O=C(OCc1ccc(Br)cc1)c1cccc(S(=O)(=O)N2CCCC2)c1	16	-27	2.5	10	?	14	1
O=C(/C=C/Nc1ccc(Oc2ccccc2)cc1)c1ccco1	6	-41	-1.6	20	4788	10	8
CCCN(CCC(=O)Nc1cc(OC)cc(OC)c1)CC1CC1	8	1	1.6	7	4212	.	.
CC(=O)c1sc(NC(=O)C(C)(C)C)nc1C	-6	-5	-5.1	-6	3551	0	-1
CSc1nccc(-c2cc(Cl)sc2Cl)n1	-8	-3	9.7	4	2720	.	.
COc1cc(CNc2nc(C)c([N+](=O)[O-])c(C)c2C#N)cc(OC)c1OC	3	-5	7.8	-9	2471	3	11
COc1cc(C=O)c(Cl)cc1OCC(N)=O	8	-22	7.2	-4	2176	15	5
COc1ccc(CCNC(=O)COC(=O)/C=C/c2ccc3c(c2)OCO3)cc1	-4	-19	5.8	.	3796	14	6
CCOc1ccc(N2C(=O)Nc3ccccc3C2(O)C(=O)NCc2ccc(F)cc2)cc1 (configuration not stated)	3	-2	4.6	6	5056	7	6
Cc1ccc(NS(=O)(=O)c2c(C)[nH]c(C)c2C(=O)N2CCCCC2)cc1C	-3	-9	5.5	-1	5278	14	9
CC1CN(S(=O)(=O)c2ccc(C(=O)Nc3ccc(S(=O)(=O)Nc4ncccn4)cc3)cc2)CC(C)O1 (configuration not stated)	4	-2	-1.1	-2	2005	12	13
CC(=O)c1cc2c(cc1NC(=O)c1c(-c3ccccc3)noc1C)OCO2	4	1	-3.0	2	4779	.	.

Shown in markdown: seven of the compounds above
| mol | Sa ugtP lethal | PrP UTR inh | Sa RN4220 lethal | BJeLR lethal | Bead autofluor | Mtb hypoxia inh | Mtb hypoxia inh growth |
| --- | --- | --- | --- | --- | --- | --- | --- |
| COc1cc(CNc2nc(C)c([N+](=O)[O-])c(C)c2C#N)cc(OC)c1OC | 3 | -5 | 7.8 | -9 | 2471 | 3 | 11 |
| COc1cc(C=O)c(Cl)cc1OCC(N)=O | 8 | -22 | 7.2 | -4 | 2176 | 15 | 5 |
| COc1ccc(CCNC(=O)COC(=O)/C=C/c2ccc3c(c2)OCO3)cc1 | -4 | -19 | 5.8 | . | 3796 | 14 | 6 |
| CCOc1ccc(N2C(=O)Nc3ccccc3C2(O)C(=O)NCc2ccc(F)cc2)cc1 (configuration not stated) | 3 | -2 | 4.6 | 6 | 5056 | 7 | 6 |
| Cc1ccc(NS(=O)(=O)c2c(C)[nH]c(C)c2C(=O)N2CCCCC2)cc1C | -3 | -9 | 5.5 | -1 | 5278 | 14 | 9 |
| CC1CN(S(=O)(=O)c2ccc(C(=O)Nc3ccc(S(=O)(=O)Nc4ncccn4)cc3)cc2)CC(C)O1 (configuration not stated) | 4 | -2 | -1.1 | -2 | 2005 | 12 | 13 |
| CC(=O)c1cc2c(cc1NC(=O)c1c(-c3ccccc3)noc1C)OCO2 | 4 | 1 | -3.0 | 2 | 4779 | . | . |

Other results follow.
SMILES	Sa ugtP lethal	PrP UTR inh	Sa RN4220 lethal	BJeLR lethal	Bead autofluor	Mtb hypoxia inh	Mtb hypoxia inh growth
CN1CC2C3C(=O)N(Cc4ccccc4)C(=O)C3[C@](Cc3ccccc3)(C1=O)N2C(=O)c1ccc(C(F)(F)F)cc1 (some centres not stated)	-19	.	4.2	.	.	-3	10
O=C1c2ccccc2C(=O)N1Cc1ccco1	3	-11	2.6	2	4601	.	.
O=Cc1cccn1Cc1ccccc1[N+](=O)[O-]	1	-12	3.4	-8	2031	5	-4
COc1ccccc1OCC(=O)N1CCCC(N(C)Cc2ccccc2)C1 (configuration not stated)	-1	6	-0.1	-4	4484	4	-5
CCCCNS(=O)(=O)c1ccc2nc(SCC(=O)Nc3ccccc3)[nH]c2c1	-15	16	-1.9	-8	2001	-4	9
CS(=O)(=O)N(CC(=O)N1CCCCC1)c1cccc(F)c1	1	-14	1.9	2	4153	1	-20
CCOC(=O)[C@H]1NN=C(C(=O)OC)[C@@H]1c1ccccc1	1	-1	1.0	-4	1910	5	6
CCC1SC(CC)C(=O)N(CC(=O)NCc2ccc(F)cc2)C1=O (configuration not stated)	4	78*	-7.1	2	4613	9	-3
CSCCC(NS(=O)(=O)c1ccc(Cl)c(Cl)c1)C(=O)O (configuration not stated)	3	-17	-0.3	-3	4352	19	-3
CCOC(=O)c1ccc(N2C(=O)C(C)=C(C)C2=O)cc1	11	-33	-2.0	-3	3682	21	12
Cc1cc(C)n2nc(S(=O)(=O)Nc3c(Cl)cccc3Cl)nc2n1	4	-18	2.0	-9	2517	14	-5
O=C(Nc1ccccc1)Nc1ccccc1C(=O)NCCCN1CCOCC1	7	-12	0.7	0	4876	3	-3
CC(C)N(Cc1ccccc1)C(=O)c1cnc2n(c1=O)CCS2	5	-8	-2.0	6	6320	12	7
CC(=O)C(C)Sc1nnc(-c2ccccc2F)n1C1CC1 (configuration not stated)	6	-25	4.0	10	3759	6	5
COc1ccc(Cl)cc1C(=O)OCC(=O)Nc1sccc1C(N)=O	-2	-2	1.5	.	4041	-9	8
CCCCCN(C(=O)CN1CCC(Cc2ccccc2)CC1)c1c(N)n(CCCC)c(=O)[nH]c1=O	7	-23	1.8	-1	3638	12	4
Cc1ccc(C(=O)NCCOc2cccc3cccnc23)cc1Cl	-6	-25	-5.9	-7	1996	10	5
O=C(CCCCCNC(=O)c1ccccc1Cl)N/N=C/c1ccco1	.	-10	.	4	2118	.	.
COc1ccc(NC(=O)c2ccccc2NC(=O)c2ccccc2)cc1	4	-47	0.6	4	3668	4	-6
CCOc1ccccc1-n1c(=O)c2ccccc2c2ccccc2c1=O	5	-7	1.0	2	2636	16	21
CC(C)NC(=S)NCc1cccs1	2	-13	0.2	3	3245	4	21
CCCOc1ccccc1NC(=Nc1nc(C)cc(C)n1)NC(=O)Nc1ccc(Cl)cc1	-9	.	8.4	.	.	3	9
Nc1nonc1-n1nnc(C(=O)NN=Cc2cccnc2)c1CSc1ccc(Cl)cc1	4	.	4.1	.	.	25	31
CCOC(=O)C1=C(COC(=O)c2ccc(Br)o2)NC(=O)NC1C (configuration not stated)	6	-28	3.5	4	5804	-2	0
CCCNC(=O)CN1C(=O)COc2ccc(S(=O)(=O)N3CCCCCC3)cc21	13	-8	6.3	2	4272	2	-1
COC(=O)c1c(NC(C)=O)sc(C(=O)N2CCOCC2)c1C	0	-2	0.1	-8	3820	-4	4
COCCn1c(=NC(=O)c2cc(-c3cccs3)nc3ccccc23)sc2cc(S(N)(=O)=O)ccc21	-1	14	-7.0	-8	2383	9	1
Cc1ccccc1C(=O)Nc1cccc(C(=O)NN=Cc2cc(Cl)cc([N+](=O)[O-])c2O)c1	2	.	3.0	.	.	6	6
Cc1ncc(CN2CCCC(C(=O)Nc3ccc(-n4ccnc4C)cc3)C2)cn1 (configuration not stated)	-2	-14	-0.7	0	6085	4	8
O=C(COc1ncnc2ccccc12)N1CCN(S(=O)(=O)c2ccccc2)CC1	2	-9	-0.4	-9	3765	-1	2
CNC(=O)COC(=O)CCC(=O)c1ccc(Cl)cc1	6	-22	7.0	8	3163	2	8
O=C(O)c1cccc(CSc2ncn[nH]2)c1	3	-16	5.3	-3	4447	5	-4
Cc1c(C)c2cccnc2c2ncccc12	74	59*	93*	.	3889	.	.
Cc1cc(C(=O)Nc2ccccn2)cs1	0	-71	4.3	0	22600*	-3	3
CN(C)CCC=C1c2ccccc2C=Cc2ccccc21	-3	-20	2.6	.	6021	7	1
O=C(N/N=C/c1cccs1)c1[nH]ncc1Br	.	-58	.	5	5712	.	.
O=C(CCC1CCCN(Cc2ccc3c(c2)OCCO3)C1)NCc1ccccc1F (configuration not stated)	1	-41	7.5	8	5957	7	1
Nc1c([N+](=O)[O-])c(=O)sc2ccccc12	-3	5	2.2	3	4371	1	5
COc1ccc(OC)c(NC(=O)C2CCN(c3nc(C)cc(C)n3)CC2)c1	-2	-13	1.9	-5	10781	0	7
CCN(CC(=O)Nc1ccc(NC(C)=O)cc1)C(=O)c1ccc(NC2CC2)c([N+](=O)[O-])c1	.	-4	.	-2	5422	.	.
CCC(CCC(=O)Nc1cccc([N+](=O)[O-])c1)C(=O)O (configuration not stated)	6	-13	7.0	5	6050	13	2
COCCn1cnc2c1c(=O)n(Cc1ccc(C#N)cc1)c(=O)n2Cc1ccccc1	16	-6	0.7	3	5785	-5	3
CS(=O)(=O)N1CCc2cc(C(=O)Nc3cccc([N+](=O)[O-])c3)ccc21	9	-13	0.9	1	4078	8	3
O=C(N/N=C/c1cc([N+](=O)[O-])ccc1O)C12CC3CC(CC(C3)C1)C2	.	2	.	8	4634	.	.
COc1ccc(-c2cccc(NS(=O)(=O)c3cc([N+](=O)[O-])c(C)c([N+](=O)[O-])c3)c2)nn1	6	1	-5.5	-6	5369	10	10
CSc1ccc(-c2c(C#N)c(N)nc3c2CCCC3)cc1	1	-34	3.2	14	8822	11	6
Nn1cnnc1N/N=C\c1ccc(-c2ccccc2[N+](=O)[O-])o1	.	-16	.	15	2555	.	.
Cc1oc(C(C)(C)C)cc1C(=O)N1CCN(c2ccc(C(F)(F)F)cn2)CC1	1	-6	1.8	-8	4275	0	1
CCOc1ccc(CN2CCC(C(=O)Nc3cccc(-c4ccn[nH]4)c3)CC2)cc1Cl	.	-16	.	4	5461	.	.
CC1=C(C(N)=O)C(c2ccccc2)n2nc(-c3cccs3)nc2N1 (configuration not stated)	5	-8	0.6	-9	4720	.	.
O=c1c2nnn(-c3cccc(F)c3)c2ncn1Cc1ccccn1	8	-22	12	5	3303	14	4
CN(C)/N=C/C=C1\CC/C(=C\c2ccc(Br)cc2)C1=O	.	-28	.	1	3479	.	.
COCCCn1c(=C(C#N)C(=O)NCCOC)sc(=Cc2ccccc2OC(F)F)c1=O	5	.	2.3	.	.	-3	3
O=C(O)CCC(=O)NCc1ccc2[nH]c3c(c2c1)CCCC3	2	-3	-10	-3	5894	7	6
COc1cc(CNc2ccc(N3CCN(C(C)=O)CC3)cc2)ccc1OCc1ccc(F)cc1	2	-11	8.8	7	3326	8	-5
CCOC(=O)c1c(NC(=O)CSc2ncccn2)sc2c1CCN(Cc1ccccc1)C2	12	-7	-0.4	3	2713	4	-6
CCOCCCNC(=O)CSc1nnc(-c2ccc(S(=O)(=O)N3CCCC3)cc2)n1C	4	3	3.4	-11	5692	14	4
Cc1ccc(SCCNC(=O)/C=C/c2cccc([N+](=O)[O-])c2)cc1	-2	-15	4.3	-11	2058	8	1
Cc1ccc(C2OCC3(CO2)COC(c2ccc(C)cc2)OC3)cc1 (configuration not stated)	-9	-24	-0.3	-13	2479	-4	2
Cc1ccc2nc(Cl)c3cc(C(=O)N(CCN(C)C)Cc4ccco4)sc3c2c1	-12	-29	-7.9	1	2327	8	4

(more compounds)
SMILES	Sa ugtP lethal	PrP UTR inh	Sa RN4220 lethal	BJeLR lethal	Bead autofluor	Mtb hypoxia inh	Mtb hypoxia inh growth
Cc1ccc(C(=O)N/C(=C\c2ccc(-c3ccc([N+](=O)[O-])cc3)o2)C(=O)NC2CCS(=O)(=O)C2)cc1 (configuration not stated)	8	-15	2.9	3	2510	5	1
CCCCNC(=O)CCSc1nc2nc(C)cc(C)n2n1	-1	-16	6.6	3	10974	4	7
O=C(O)c1ccc2c3c(cccc13)C(=O)N(c1cccc3ccccc13)C2=O	6	-15	2.8	0	3178	13	0
CC(=O)Nc1nnc(SCC(=O)N2CCN(Cc3ccccc3)CC2)s1	-4	-69	1.9	-5	9863	5	12
